Assay outcomes from PubChem BioAssay.
HPGD inh – qHTS Assay for Inhibitors of HPGD (15-Hydroxyprostaglandin Dehydrogenase); 15-hydroxyprostaglandin dehydrogenase [NAD(+)] (Homo sapiens), P15428; purified HPGD, NADH fluorescence kinetic, PGE2 substrate; Potency, µM, inactives show top-dose activity change, negative = inhibition, most hits filed as inhibitors; 150,000 compounds, 4.3% hits; AID 894, 2007; active = well fitted inhibition curve with a large enough effect (not every such curve was filed as active); inconclusive = small, poorly fitted or top-dose-only effect, or another doubt; inactive = no such curve, though single readings can be large or run the other way;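 note: top concentration of the series not given in the record; plate controls included wells without enzyme; inactives centre near -10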
Target sequence (P15428 whole entry, looked up): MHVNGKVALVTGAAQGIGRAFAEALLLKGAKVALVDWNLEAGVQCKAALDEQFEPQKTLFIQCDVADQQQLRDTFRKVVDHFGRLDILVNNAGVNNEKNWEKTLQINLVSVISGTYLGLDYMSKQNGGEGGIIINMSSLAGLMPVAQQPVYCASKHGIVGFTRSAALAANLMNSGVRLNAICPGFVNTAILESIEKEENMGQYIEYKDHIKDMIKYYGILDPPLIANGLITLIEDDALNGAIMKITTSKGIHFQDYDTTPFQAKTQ
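NADH formation kinetics: reaction with 30 uM PGE2 and 1 mM NAD+ (final), 20 nM enzyme, Tris-HCl pH 8 with Tween 20, after 15 min compound preincubation at room temperature. Fluorescence change, last versus first of five reads.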
Starred values were filed as active, the others as inactive; ? = inconclusive. % is set by controls: 0 for no effect and ±100 for the full control effect; potency is the fitted concentration of half-maximal effect. Not all compounds are listed (hit frequency here may not be typical).

structure	HPGD inh
O=C(CCCN1C(=O)CSc2ncccc21)N1CCN(c2cccc(C(F)(F)F)c2)CC1	-7%
COC(=O)c1cc(=O)n(Cc2ccc3c(c2)OCO3)c(=Nc2ccc(F)cc2)s1	-5%
Cc1ccccc1N=C(NOCc1ccccc1)c1nonc1N	0%
Nc1c(-c2cccc(Cl)c2)cnn1-c1cccc(C(F)(F)F)c1	13µM*
CC(=O)Nc1ccc(S(=O)(=O)N2CCSCC2)cc1	-5%
Cc1ccc(NC(=O)NCCCN2CCCC2=O)cc1	-7%
CCn1cc(C(=O)OCc2ccccc2)c(=O)c2ccc(C)nc21	-8%
O=C(CN1CCN(S(=O)(=O)c2ccc(Br)cc2)CC1)Nc1ccccc1F	-16%
O=[N+]([O-])c1cc2c(cc1C=Nc1ccccc1)OCO2	-14%
O=C(O)c1ccc(F)c(S(=O)(=O)Nc2ccccc2)c1	-6%
CCOc1ccc(N2CC(C(=O)Nc3cccc(C)c3C)CC2=O)cc1 (stereo unspecified)	-7%
Cc1cc(C)c(S(=O)(=O)N2CCC(C(=O)NCc3ccco3)CC2)c(C)c1	-7%
CC(=O)N1c2ccc(S(=O)(=O)CCC(=O)O)cc2CC1C (stereo unspecified)	-2%
COC(=O)C1=C(C(=O)OC)[C@@H]2Nc3ccccc3[C@@]23C[C@@H](C(=O)OC)N(C(=O)c2ccc(Br)cc2)C3=N1	-10%
O=C(CC(=O)c1ccccc1O)c1ccc(F)cc1	18µM*
O=C(NNC(=S)Nc1ccccc1Cl)C1CC1	-9%
CCC12CN3CC(CC)(CN(C1)C31C(=O)N(C)c3ccc(C)cc31)C2=O (stereo unspecified)	3%
COc1cc(/C=C2\SC(=S)N(N3CCOCC3)C2=O)cc(OC)c1OC	-14%
COc1ccc(C(=O)c2ccc(OC)c(OC)c2)cc1OC	-11%
CCOc1ccc(NC(=O)CSc2nc3[nH]ncc3c(=O)n2-c2ccccc2OC)cc1	-9%
CC1CN(C(=O)C2CCCC2)C(C)CN1C(=O)C1CCCC1 (stereo unspecified)	-3%
O=C(COC(=O)/C=C/c1ccccc1)Nc1ccccc1Br	-1%
COC(=O)c1ccc(Sc2ccc(Cl)cc2)c(N)c1	?
CCOc1c(OC)cc(C2C(C#N)=C(N)Oc3n[nH]c(-c4ccncc4)c32)cc1OC (stereo unspecified)	-5%
COc1ccc(C=NCC2COc3ccccc3O2)cc1OC (stereo unspecified)	-19%
COC(=O)CSC1=C(C#N)C(c2ccccc2OC)C(C(=O)OC)C(=O)N1 (stereo unspecified)	-13%
Cc1c(C(=O)N2CCCCC2)sc(NC(=O)C(C)C)c1C#N	13µM*
CNC(=O)C1C2C=CC3(O2)C1C(=O)N(C1CC1)C3C(=O)NCc1ccc(OC)cc1 (stereo unspecified)	3%
O=C(NCc1ccccc1)Nc1cccn(Cc2ccc(F)cc2)c1=O	?
COc1ccc(C(CC(=O)NCc2ccccc2)Sc2n[nH]c(-c3ccccc3)n2)cc1 (stereo unspecified)	7.9µM*
COc1ccc(CCNC(=O)C2CCCN(S(C)(=O)=O)C2)cc1OC (stereo unspecified)	-7%
Cc1ccc(C(=O)CSc2nnc(C)s2)cc1	-24%
COc1cccc(OCc2nnc(SCC(=O)NCc3ccco3)n2CCc2ccccc2)c1	-23%
CC(C)(C)NC(=O)CSc1nc(-c2ccccc2)c(-c2ccccc2)[nH]1	?
COc1c(O)cccc1O	-9%
CCCCN(CCCC)C(=S)N/N=C/c1c(C)[nH]n(-c2ccccc2)c1=O	-29%
COCCCn1c(SCC(=O)OC2CCCCC2)nnc1-c1cccs1	-4%
O=C(CN1CCC(Cc2ccccc2)CC1)NC(=O)NCc1ccco1	-8%
c1ccc(C[n+]2c(-c3ccccc3)csc2Nc2ccccc2)cc1	-16%
CC(=O)O/N=C(/C)c1ncc(C(F)(F)F)cc1N1CCOCC1	?
Cc1cccc(C)c1N1C(=O)CC(N(O)c2ccccc2)C1=O (stereo unspecified)	-8%
Cc1ccc(C)c(NC(=S)NNC(=O)c2ccc(Br)o2)c1	-7%
CCCC1=Nc2cc(C(=O)NCCCOC(C)C)ccc2Sc2ccccc21	-9%
Fc1ccc(CSc2nnc(CN3CCOCC3)n2-c2ccccc2)c(Cl)c1	-7%
Cn1cc(SCC(=O)Nc2ccc3c(c2)OCO3)c2ccccc21	-8%
CCCCOCCCNC(=O)CC(C)c1ccccc1 (stereo unspecified)	-12%
COc1ccccc1NC(=O)CN(C)S(=O)(=O)c1ccc2c(c1)CCC(=O)N2	2%
COc1ccccc1N1CCN(/N=C\c2ccc(C)o2)CC1	-18%
Cc1ccc(C(=O)Nc2ccc(N3CCOCC3)nc2)cc1	-4%
COC(=O)CNC(=O)CN1C(=O)N(c2ccc(Cl)cc2)C(N(O)C(=O)Nc2ccc(Cl)cc2)C1(C)C (stereo unspecified)	-15%
Cc1ccc(N(CN2CCCC2=O)C(=O)c2ccc(OC(C)C)cc2)cc1	-10%
Cc1nn(Cc2ccc(F)cc2)c(C)c1NC(=O)c1cc(-c2ccc3c(c2)OCO3)on1	-24%
CN(Cc1ccccc1)S(=O)(=O)c1ccc2c(c1)NC(=O)CC(=O)N2	-13%
Cc1ccc(S(=O)(=O)NC2=NCN(C3CCN(Cc4ccccc4)CC3)CN2)cc1	-11%
CC1=C(C(=O)OCc2ccccc2)C(c2ccc(-c3ccccc3)cc2)NC(=O)N1CCCCCC(=O)O (stereo unspecified)	-10%
Cc1cc(=O)[nH]c(SCC(=O)c2ccc(C(C)C)cc2)n1	-8%
CC(=O)N1CCc2cc(S(=O)(=O)CCC(=O)NCc3ccc4c(c3)OCO4)ccc21	-8%
CC1=C(SCCC#N)S/C(=C2\SC(C)=C(SCCC#N)S2)S1	18µM*
c1ccc(Cn2nnnc2C(c2cccnc2)N2CCN(C3CCCCC3)CC2)cc1 (stereo unspecified)	-11%
Oc1cccc(C(=S)N2CCN(Cc3ccccc3)CC2)c1	14µM*

Looked up above:
Result of `CC1=C(C(=O)OCc2ccccc2)C(c2ccc(-c3ccccc3)cc2)NC(=O)N1CCCCCC(=O)O` (stereo unspecified) under HPGD inh: -10%
Result of `Cc1ccc(N(CN2CCCC2=O)C(=O)c2ccc(OC(C)C)cc2)cc1` under HPGD inh: -10%

(listing goes on)
molecule,HPGD inh
CSC1=NCCN1C(=O)c1ccc(S(=O)(=O)N2CCCC2)cc1,-11%
O=c1cc(CNc2cc(C(F)(F)F)cc(C(F)(F)F)c2)nc2sccn12,-8%
COc1ccc(OC)c(NC(=O)C2CCCCC2)c1,-17%
CCOC(=O)c1cc(C(=O)NCc2ccc(Cl)cc2Cl)nn1C,-5%
COc1ccc(-n2c(N)c(C(=O)NCc3ccco3)sc2=S)cc1,?
N[C@H](CO)Cc1cnc[nH]1,2%
Cc1cc(-c2ccccc2)c2c(=O)[nH][nH]c2n1,-11%
COC(=O)c1ccccc1NC(=S)NC(=O)c1ccccc1F,?
COc1ccccc1CN(C)C(=O)C1COc2ccccc2O1 (stereo unspecified),7.1µM*
Cc1cc(C)c(NC(=O)COc2ccccc2C(=O)Nc2ccc3c(c2)oc2ccccc23)c(C)c1,?
Cc1c(N(C(=O)c2cc(=O)[nH]c3ccccc23)C(C)C)c(=O)n(-c2ccccc2)n1C,-5%
COc1ccc(C(Nc2ccccn2)c2c(NC(=O)c3ccco3)sc(C)c2C)cc1OC (stereo unspecified),-8%
O=C(CSc1nnc(-c2ccc(F)cc2)c2ccccc12)Nc1cccc(Cl)c1,-3%
CCOC(=O)c1c(C)n(C)c2c(C)cc(O)c(OC(=O)CC)c12,-6%
O=C(NCc1cccs1)c1ccccc1[N+](=O)[O-],13µM*
CN(C)C(=O)N1CCC(C(=O)NCc2ccccc2)CC1,-1%
CC(=O)c1ccc(NC(=O)CSc2nnc(NC(=O)CN3CCOCC3)s2)cc1,-3%
CCCSc1nnc(CNC(=O)C23CC4CC(CC(C4)C2)C3)n1Cc1ccccc1,-3%
O=[N+]([O-])c1cc(/C=N/Nc2nc(N3CCCCC3)nc(N3CCCCC3)n2)ccc1O,-22%
CCC(C)NC(=O)CCCc1ccccc1 (stereo unspecified),-19%

5 compounds out of the list above, ordered by their value in HPGD inh, highest first.
Molecule,HPGD inh
CN(C)C(=O)N1CCC(C(=O)NCc2ccccc2)CC1,-1%
CCCSc1nnc(CNC(=O)C23CC4CC(CC(C4)C2)C3)n1Cc1ccccc1,-3%
Cc1c(N(C(=O)c2cc(=O)[nH]c3ccccc23)C(C)C)c(=O)n(-c2ccccc2)n1C,-5%
CCOC(=O)c1c(C)n(C)c2c(C)cc(O)c(OC(=O)CC)c12,-6%
O=[N+]([O-])c1cc(/C=N/Nc2nc(N3CCCCC3)nc(N3CCCCC3)n2)ccc1O,-22%

Exported with each value named: entries from further up.
SMILES: COc1ccc(C(Nc2ccccn2)c2c(NC(=O)c3ccco3)sc(C)c2C)cc1OC (stereo unspecified)
- HPGD inh: -8%
SMILES: CN(Cc1ccccc1)S(=O)(=O)c1ccc2c(c1)NC(=O)CC(=O)N2
- HPGD inh: -13%

Next part:
molecule,HPGD inh
COC(=O)c1ccc(Cl)c(NC(=O)CN2CCN(C)CC2)c1,-16%
O=C(Cc1ccccc1)Nc1ccc(Br)c(Cl)c1,-21%
CCCc1[nH]nc2c1C(c1cn[nH]c1-c1ccc(F)cc1)C(C#N)=C(N)O2 (stereo unspecified),-7%
OC1(c2ccccc2)CN(c2ccccc2)C2=[N+]1CCS2 (stereo unspecified),0%
CCOC(=O)c1ccc(N2C(=O)CC(C(=O)OC)=C2C)cc1,-17%
O=C(Nc1cccc2ccccc12)C1CCN(C(=O)Cc2ccccc2)CC1,-16%
CC(=O)SC1CC2=CC(=O)CC[C@]2(C)C2CC[C@@]3(C)[C@@H](CC[C@@]34CCC(=O)O4)C12 (stereo partly specified),-3%
CCn1c(CCNC(=O)c2cccs2)nnc1SCC(=O)Nc1ccc(Cl)cc1,2%
O=c1c(-c2ccccc2)nc2cnc(Oc3ccccc3)nc2n1Cc1cccs1,-23%
Cc1ccc(OCCC(=O)OCC(=O)N2c3ccccc3CC2C)cc1 (stereo unspecified),-7%

Laid out differently: 4 of the compounds above
HPGD inh | molecule
-3% | CC(=O)SC1CC2=CC(=O)CC[C@]2(C)C2CC[C@@]3(C)[C@@H](CC[C@@]34CCC(=O)O4)C12 (stereo partly specified)
2% | CCn1c(CCNC(=O)c2cccs2)nnc1SCC(=O)Nc1ccc(Cl)cc1
-23% | O=c1c(-c2ccccc2)nc2cnc(Oc3ccccc3)nc2n1Cc1cccs1
-7% | Cc1ccc(OCCC(=O)OCC(=O)N2c3ccccc3CC2C)cc1 (stereo unspecified)

The listing continues.
molecule,HPGD inh
O=C1OCCN1C(=O)[C@H]1[C@H](c2ccccc2)C(c2cccc(Cl)c2)=NN1c1ccccc1,?
CCCCCCCCC,2%
CCOc1ccc(C(=O)NC(=S)Nc2ccccn2)cc1[N+](=O)[O-],-22%
COCC(C)N=Cc1c(O)[nH]c2ccccc12 (stereo unspecified),-4%
O=C(O)CCC(=O)N1CC=C(c2ccccc2)CC1,-11%
Cc1cc(Cl)c(OCCCCN2CCOCC2)c(Br)c1,-23%
Cc1nc(Nc2nc(CSc3nc4ccccc4[nH]3)cc(=O)[nH]2)nc2ccccc12,-14%
O=C1OCCN1CCN(CN1C(=O)CCC1=O)CN1C(=O)CCC1=O,-10%
CCOc1ccccc1N1CCN(C(=O)Nc2ccc(F)c(Cl)c2)CC1,-14%
Cc1ccnc(NC(=O)c2ccc(COc3ccc(Cl)cc3)o2)c1,-22%
Cc1oc(-c2ccccc2F)nc1CN1CCC(C(=O)NC2CCCc3ccccc32)CC1 (stereo unspecified),-5%
CC(C)(C)C(=O)OCCNc1nc(-c2ccccc2)nc2ccccc12,-11%
CC(C)NS(=O)(=O)c1ccc(OCC(=O)N2CCCC2)c(Cl)c1,-5%
Cc1cc(C(F)F)nn1CC(=O)N1CCSCC1,-10%
CCC1=C(OC(=O)N(CC)CC)N2C(=O)OC(=NCCOC)[C@]2(Cc2ccccc2)[C@H]2C1=CC[C@H]1C(=O)N(C)C(=O)[C@H]12,-6%
CCOc1ccc(NC(=O)CSc2nnc(C)n2CCCOC)cc1,-6%
CCOC(=O)Cn1nc(-c2ccccc2)c2ccccc2c1=O,-2%
O=C(CC1SCCNC1=O)Nc1cccc(C(F)(F)F)c1 (stereo unspecified),-3%
CCC(C)(C)n1nnnc1C(c1cc2cc3c(cc2[nH]c1=O)OCO3)N1CCCCC1 (stereo unspecified),-26%
COc1ccccc1NC(=O)c1ccc(-c2ccc(Br)cc2)o1,?
COc1cc(NC(=O)c2cc3c(=O)n(C)c4ccccc4c3n2C)cc(OC)c1OC,?
CN(CC(=O)N1CC(=O)N(CCc2ccccc2)C(=O)C1)S(=O)(=O)c1cccc2nsnc12,-1%
CCC(C)(C(=O)NC1CCCC1)N(C(=O)CNC(C)=O)c1ccc(C)cc1 (stereo unspecified),8%
O=C(CCC(=O)OCC(=O)c1cccc([N+](=O)[O-])c1)Nc1ccccc1Cl,0%
COC(=O)C1=CN(C(C)C)C=C(C(=O)OC)C1c1cc(Br)c(OC)c(OC)c1,?
N#Cc1cccc(NC(=O)N2CC[C@@]3(CCCN(C(=O)c4cccc(F)c4)C3)C2)c1,-8%
Cc1onc(-c2ccccc2Cl)c1C(=O)Nc1ccc(S(=O)(=O)NCC2CCCO2)cc1 (stereo unspecified),-4%
CCCC(=O)Nc1cccc(NC(=O)c2ccccc2Br)c1,-9%
CC(=O)Nc1cccc(NC(=O)CSc2nc(C)c(C)c(C)c2C#N)c1,?
O=C(NNC(=O)c1ccccc1Br)c1ccc(Cl)cc1,-14%
O=C(COc1ccccc1)Nc1cccc(-c2nc3ccccc3[nH]2)c1,-13%
Cc1onc(-c2ccccc2)c1C(=O)Nc1cccc(C#N)c1,-8%
